# Source: PubChem BioAssay (several laboratories)
# PrP UTR inh = inhibition of PrP 5' UTR reporter expression. cell-based PrP 5' UTR mRNA reporter, plate reader. inhibition, % (no concentration beside the values). 340,000 compounds, 0.35% hits;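 active means every replicate at 50% or more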;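 further: 0 = median of the neutral control wells; tested in H4 reporter cells; numbers are from one replicate; inactives centre near -14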
# Autofluor counter = compound fluorescence in toxin protease inhibitor counterscreen; fluorescence intensity (no concentration beside the values); AID 624483; compound autofluorescence counterscreen, microsphere flow cytometry; hits give high values; 360,000 compounds, 3.1% hits;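 active means at least 3 SD above the mean of all compounds, about 16000 in these data; inconclusive means too few beads counted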;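 further: 100 nL of 1 mM stock went into each well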
# Mtb hypoxia inh = inhibitors of hypoxia-regulated fluorescent reporter in Mycobacterium tuberculosis; M. tuberculosis hypoxia-regulated fluorescent reporter, fluorescence; fluorescence inhibition, % (test concentration not listed); 300,000 compounds, 0.1% hits; AID 1159583;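 active means 35 to 45% if threefold the growth effect, above 45% if 1.5-fold the growth effect; inactive means the rest, general growth blockers included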;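 further: wells of about 50 µL received 100 nL stock; 0% = vehicle wells and 100% = reference inhibitor wells; whole bacteria with a GFP reporter of the hypoxia response; strong numbers were not always called active; many hits fall short of the cut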
# BJeLR lethal = BJeLR cell viability loss; BJeLR (HRASV12) viability, CellTiter-Glo ATP luminescence, 48 h; reference of the scale not given here; inhibition, % (test concentration not listed); 300,000 compounds, 0.17% hits; AID 1554;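 active means replicate mean above 50%; inconclusive means above 50% but judged a plate artefact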;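 further: 50 nL library stock added to about 25 µL; numbers are from one replicate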
# ugtP null kill = kills S. aureus RN4220 lacking UgtP; 330,000 compounds, 0.54% hits; S. aureus RN4220 ugtP deletion, OD600 growth, 16 h; some inactives read as strong as hits; AID 1259309; growth inhibition, % (test concentration not listed);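 active means z-score under -3 and OD600 up to 0.15 on both plates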;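 further: plate controls were untreated wells for no effect and antibiotic for full effect; wells of about 80 µL received 100 nL stock; the first replicate is given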
# Sa RN4220 lethal = kills Staphylococcus aureus RN4220. 330,000 compounds, 0.33% hits. S. aureus RN4220 growth, OD600, 16 h. inhibition, % (no concentration beside the values);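 active means z-score of -3 or lower and OD600 up to 0.18 on both plates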;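 further: plate controls were untreated cells for no effect and reference antibiotic for full effect; stock transfer was 100 nL into about 80 µL; one replicate is shown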
# Mtb hypoxia inh growth = recorded beside Mtb hypoxia inh, whose call it bears; growth inhibition, %; measured here: M. tuberculosis growth (absorbance);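 0% = vehicle and 100% = reference antibiotic; read after six days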
# * hit, by the source's call; ? = inconclusive; · = not tested or not shown. Compounds as they come; 4.1% or so of the library scored in one or more.
# Sample of the layout:
SMILES,PrP UTR inh,Autofluor counter,Mtb hypoxia inh,Mtb hypoxia inh growth,BJeLR lethal,ugtP null kill,Sa RN4220 lethal
N#Cc1ccc(CN2C(=O)NC3(CCCCCC3)C2=O)cc1,-23,3667,12,6,4,12,2.0
COc1cccc(NC(=O)c2cc(-c3ccccn3)nc3ccccc23)c1,-10,·,3,1,·,-3,2.0
CC(C)C(NC(=O)OCc1ccccc1)C(=O)OCC(=O)N1CCCCC1 (stereo unspecified),-38,2393,·,·,0,5,3.1
COc1ccc2oc(C(=O)N(C)Cc3ccc4c(c3)OCCO4)c(C)c2c1,-1,5612,0,-3,-11,2,3.2
Cc1cc(C(=O)CN2C(=O)c3ccccc3C2=O)c(C)n1Cc1cccs1,20,24091*,5,3,-6,-1,7.3
CC(C)(C)OC(=O)NCc1nc(N)n[nH]1,-6,3079,18,4,11,-1,-9.4
Cc1ccc(C=Nn2c(-c3ccncc3)n[nH]c2=S)cc1,·,·,2,0,·,3,11
Cc1cc(C)cc(N(CCC#N)C(=O)CSc2nc3nc(C)cc(C)n3n2)c1,-15,8478,10,3,-1,5,3.2
C[C@@H]1CN(Cc2nc(Cc3ccccc3F)no2)C[C@H](C)O1,-9,4541,3,4,2,2,2.2
CCOC(=O)/C(C#N)=C/c1cccc(C)c1,-24,3962,8,-3,-3,0,-0.9
Cc1cc(-c2n[nH]c(=S)n2/N=C/C(Cl)=C/c2ccccc2)n[nH]1,-14,2344,·,·,4,·,·
CCOC(=O)C1CCN(S(=O)(=O)c2c(C)[nH]c(C)c2C(=O)N2CCCCC2)CC1,-6,5848,5,-5,4,4,2.9
COC(=O)c1ccccc1NC(=O)c1ccc(NC(=O)C2CCCO2)cc1 (stereo unspecified),6,4884,5,1,3,0,1.3

# The list itself, repeating the preview:
SMILES,PrP UTR inh,Autofluor counter,Mtb hypoxia inh,Mtb hypoxia inh growth,BJeLR lethal,ugtP null kill,Sa RN4220 lethal
N#Cc1ccc(CN2C(=O)NC3(CCCCCC3)C2=O)cc1,-23,3667,12,6,4,12,2.0
COc1cccc(NC(=O)c2cc(-c3ccccn3)nc3ccccc23)c1,-10,·,3,1,·,-3,2.0
CC(C)C(NC(=O)OCc1ccccc1)C(=O)OCC(=O)N1CCCCC1 (stereo unspecified),-38,2393,·,·,0,5,3.1
COc1ccc2oc(C(=O)N(C)Cc3ccc4c(c3)OCCO4)c(C)c2c1,-1,5612,0,-3,-11,2,3.2
Cc1cc(C(=O)CN2C(=O)c3ccccc3C2=O)c(C)n1Cc1cccs1,20,24091*,5,3,-6,-1,7.3
CC(C)(C)OC(=O)NCc1nc(N)n[nH]1,-6,3079,18,4,11,-1,-9.4
Cc1ccc(C=Nn2c(-c3ccncc3)n[nH]c2=S)cc1,·,·,2,0,·,3,11
Cc1cc(C)cc(N(CCC#N)C(=O)CSc2nc3nc(C)cc(C)n3n2)c1,-15,8478,10,3,-1,5,3.2
C[C@@H]1CN(Cc2nc(Cc3ccccc3F)no2)C[C@H](C)O1,-9,4541,3,4,2,2,2.2
CCOC(=O)/C(C#N)=C/c1cccc(C)c1,-24,3962,8,-3,-3,0,-0.9
Cc1cc(-c2n[nH]c(=S)n2/N=C/C(Cl)=C/c2ccccc2)n[nH]1,-14,2344,·,·,4,·,·
CCOC(=O)C1CCN(S(=O)(=O)c2c(C)[nH]c(C)c2C(=O)N2CCCCC2)CC1,-6,5848,5,-5,4,4,2.9
COC(=O)c1ccccc1NC(=O)c1ccc(NC(=O)C2CCCO2)cc1 (stereo unspecified),6,4884,5,1,3,0,1.3
O=C(Nc1ccc(NC(=O)c2ccco2)nc1)c1ccco1,-38,4542,4,7,10,9,1.2
O=[N+]([O-])c1ccccc1S(=O)(=O)Nc1cccnc1,-14,3997,6,3,-4,6,0.5
Cc1ccc(N=C2SCCCN2C(=O)c2ccco2)cc1Cl,2,3550,10,1,-12,11,9.6
CC(C)c1ccc(C=Nn2nnnc2Nc2ccccc2)cc1,·,·,2,2,·,-1,0.7
COc1ccc(CNS(=O)(=O)c2ccc3c(c2)NC(=O)C(C)S3)cc1 (stereo unspecified),-7,5756,-8,-2,9,-10,15
FC(F)Oc1ccccc1C1CC(c2ccc(Br)s2)Nc2ncnn21 (stereo unspecified),-8,?,17,4,-2,5,-5.2
O=C(COC(=O)c1c(F)cccc1F)c1ccc[nH]1,·,·,16,-8,-8,2,3.7
Cc1cccc(NC(=O)CSc2nnc(-c3ccccc3)n2N)c1C,-13,13219,3,9,1,-3,4.1
CC(C)(C)c1ccc(C(=O)NN2CCOCC2)cc1,-12,5332,11,-11,0,5,2.7
CCc1ccc(CCC(=O)Nc2ncc(Cc3ccccc3Cl)s2)o1,-16,2018,0,9,57*,-9,3.8
O=C(NCc1ccco1)c1cccnc1-c1nc2ccccc2s1,-16,10014,-2,-5,1,0,2.5
COc1cc(CCC(=O)OCC(=O)Nc2ccccc2C(C)C)cc(OC)c1OC,1,2527,4,10,0,-3,3.2
# More results.
SMILES,PrP UTR inh,Autofluor counter,Mtb hypoxia inh,Mtb hypoxia inh growth,BJeLR lethal,ugtP null kill,Sa RN4220 lethal
O=C(Cn1c(C(F)(F)F)nc2ccccc21)Nc1ccccc1C(=O)O,-25,4197,-5,11,7,0,-1.9
Cc1cc(C)c2nc(C)cc(N/N=C/c3ccc(O)cc3)c2c1,-15,4212,·,·,51*,·,·
NC(=O)[C@@H]1CC2(CC(c3cccc(NC(=O)COc4ccc(Cl)cc4)c3)=NO2)CN1C(=O)c1ccccc1 (stereo partly specified),-13,4322,·,·,-7,·,·
CN(c1ccccc1)c1nc(N)c(C#N)c(CC#N)c1C#N,4,6648,6,2,-1,2,5.0
CCSc1nnc(NC(=O)CCc2ccccc2)s1,-13,8794,0,1,3,9,3.2
CCCS(=O)(=O)Nc1cc(C(F)(F)F)ccc1OCCOC,-18,24565*,16,8,-1,-5,3.5
COc1ccc(C)c2sc(N3CCCC3)nc12,-12,9531,3,6,-5,-2,4.5
CCOC(=O)CNC(=O)CSc1ccc2nnc(-c3ccc(F)cc3)n2n1,-14,3772,11,2,-9,7,8.4
CC(=O)NNC(=O)CSc1nnc(-c2ccccc2)c(-c2ccccc2)n1,-12,3847,0,4,17,6,4.1
CC1CCN(C(=O)Cn2nc(C(F)(F)F)c3c2CCCC3)CC1,-3,10308,-15,0,·,-13,-4.9
COc1ccc(CC(=O)NNC(=O)CSc2ccc(C)cc2)cc1,-19,3891,·,·,-14,·,·
COc1ccc(CN2CCCC(C(=O)c3ccccc3SC)C2)cc1O (stereo unspecified),-4,3299,7,8,-1,22,7.6
Cc1noc(C)c1S(=O)(=O)N1CCC(C(=O)NCCc2ccc(S(N)(=O)=O)cc2)CC1,-22,10206,1,4,-3,-2,4.2
Cc1ccc(C)n1-n1cnc2scc(-c3cccs3)c2c1=O,-5,2885,17,15,7,5,-0.7
CC1CN(c2ccc(Oc3ccccc3)cc2)c2nc3c(c(=O)[nH]c(=O)n3C)n2C1 (stereo unspecified),-14,5041,·,·,4,7,-2.0
Cc1n[nH]c(C)c1CN(C)C(=O)c1cc(COc2ccc(F)c(F)c2)on1,-14,5743,1,-1,-3,3,5.3
COCCn1c(Br)nc2c1c(=O)n(C)c(=O)n2C,-4,4811,4,2,0,5,4.5
O=C(CSc1nc2cc(C(=O)O)ccc2c(=O)n1-c1ccc(F)cc1)Nc1ccc(F)c(F)c1F,-6,4069,-1,-4,-5,4,1.1
CC(OC(=O)Cc1ccc(F)cc1)C(=O)NCc1ccc2c(c1)OCO2 (stereo unspecified),-14,5981,2,4,-1,6,2.3
CC1=NOC(=O)/C1=C\c1ccc(-c2ccc(Br)cc2)o1,-18,4358,11,8,-6,9,14
CN(CC(=O)Nc1ccc(F)c(F)c1F)C(=O)c1nn(Cc2ccccc2)c(=O)c2ccccc12,-19,8791,2,-5,·,-4,3.1
CCCCc1cc(=O)oc2c(C)c(OCC(=O)NCc3ccccn3)ccc12,-14,4910,-8,-4,-3,2,5.5
CCOC1OC(C(=O)N2CCCCCCC2)=CC(c2ccc3c(c2)OCO3)C1CCCO (stereo unspecified),·,·,4,10,·,-4,-1.4
CCOc1ccc(-c2ccc(C=O)o2)c([N+](=O)[O-])c1,-13,10532,·,·,-1,·,·
N#Cc1ccc(Oc2ncccn2)cc1,-20,5556,0,7,-4,3,3.1
# Next results.
SMILES,PrP UTR inh,Autofluor counter,Mtb hypoxia inh,Mtb hypoxia inh growth,BJeLR lethal,ugtP null kill,Sa RN4220 lethal
CCN(Cc1ccccc1)C(=O)CCc1nc(-c2ccc(C)cc2)no1,-8,4099,·,·,-9,11,1.3
CC(=O)C1=C(O)C(=O)N(Cc2cccnc2)C1c1ccccc1Cl (stereo unspecified),-27,3160,-5,8,-2,3,17
O=S(=O)(Nc1cc(Cl)ccc1-n1cncn1)c1ccc(F)cc1,·,5430,10,6,·,1,31
Cc1ccc(C(=O)CSc2nc(C(C)C)nc3ccccc23)cc1,-15,4043,7,4,14,21,2.7
COc1ccc(NC(=O)CN(C)C(=O)c2ccc(S(=O)(=O)Nc3ccccc3C)cc2)cc1,-11,·,5,9,·,3,3.9
CNC(=O)NC(=O)COC(=O)c1n[nH]c2ccccc12,0,4030,16,8,7,8,4.1
O=C(NCCC(=O)N1CCN(c2ccc(F)cc2)CC1)c1ccco1,-15,5858,-1,-7,·,4,-1.5
COc1ccc(NC(=O)COC(=O)CCCc2c[nH]c3ccccc23)cc1OC,-7,10121,3,5,4,-7,0.5
COc1ccc(S(=O)(=O)Nc2ccccc2C(=O)N2CCOCC2)cc1Cl,-1,17400*,-10,-1,13,2,3.4
CSc1nsc(SCC(=O)Nc2ccc(F)cc2)n1,-15,3058,14,3,2,17,3.3
OCC1(CCc2ccccc2)CCN(Cc2ccc3nsnc3c2)CC1,-48,4388,-5,-10,0,-3,-3.9
O=C1COc2ccc(C(=O)c3ccccc3C(=O)NCc3ccco3)cc2N1,-7,3394,·,·,0,6,2.6
Cc1cc(-c2nnc(SCC(=O)Nc3nc(-c4ccccc4)cs3)o2)no1,-13,3655,12,2,10,4,-3.2
Cc1nc(-c2coc3cc(OCC(=O)O)ccc3c2=O)cs1,-38,7736,12,7,29,9,6.4
CCCCCNC(=O)C(=O)C1C(=O)Nc2ccccc21 (stereo unspecified),-4,4447,-6,-1,1,-2,-0.7
CC(=O)c1cccc(NC(=O)NC(C)c2ccc3c(c2)OCO3)c1 (stereo unspecified),-15,5392,13,-1,6,-1,0.4
Cc1cc(C)cc(NC(=S)NC2CC3CCCC(C2)N3C2CCCC2)c1 (stereo unspecified),2,3842,14,19,-4,12,3.3
O=C(c1ccc(-c2ccccc2)cc1)N1CCN(c2ccccn2)CC1,-46,4993,3,2,-2,0,8.3
Cc1ccc(SCC(=O)NNC(=O)C2CCCCC2)cc1,-18,20856*,-2,4,-5,-2,1.3
COc1ccc(NC(C)C(=O)Nc2ccc(C#N)cc2)cc1Cl (stereo unspecified),3,22894*,4,11,-4,-1,-0.2
CCOc1ccc(S(=O)(=O)Nc2ccc(C(=O)N3CC(C)OC(C)C3)cc2)cc1 (stereo unspecified),-48,?,4,-13,7,13,2.3
S=C(Nc1ccc2cn[nH]c2c1)Nc1ccc(Cl)cc1Cl,-22,4092,9,8,-6,-6,1.3
CCCCn1c(Cc2ccccc2)nnc1SCC(=O)Nc1cc(C)on1,-13,8771,9,4,-4,-6,0.4
O=S(=O)(Nc1ccc2oc(-c3ccccc3)nc2c1)c1ccccc1,-27,9406,4,6,2,-2,-0.4
CC(=O)NCCCc1c[nH]c2ccc(Cl)cc12,-3,10116,8,8,-3,-2,3.4
Cc1ccc(OCC(=O)N2CCC(C)CC2)c([N+](=O)[O-])n1,-12,3773,8,10,·,11,6.0
COc1ccc(CCn2c(O)c(C=NCCCN(C)C)c(=O)[nH]c2=O)cc1OC,-12,10184,-1,13,-12,-3,1.4
